gsp antag = gsp mutant antagonism; Potency, µM (highest dose often 76.9 µM), without a hit: at the highest dose activity change, negative = inhibition, most hits filed as inhibitors; actives 0.4% (n = 340,000); gsp-mutant cells, cAMP HTRF, 30 min; control for the full effect not named in the record; active = falling curve of any shape with a large fitted effect; inconclusive = falling curve, mostly with a smaller effect; inactive = flat or rising curve; cell line not stated here;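 also: intracellular cAMP measured with PDE inhibitor Ro 20-1724 present during compound exposure; potency is read from the fitted curve at half-maximal effect; % is scaled to controls: 0 for no effect and ±100 for the full control effect; nearly all actives have a fitted effect of over 65% in size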
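Cells in G418 medium, seeded 16-24 h, 37C; buffer exchange to DPBS + 1 mM CaCl2, 0.5 mM MgCl2, 0.05% BSA; cpds in DMSO + […] (300 uM stock), 30 min 37C; HTRF cAMP detection.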
Sfp inh = blocks B. subtilis Sfp PPTase activity; Q9F4F7; Biochemical Sfp PPTase activity, qHTS; Potency, µM, without a hit: max response, negative = inhibition, hits mostly inhibitors; actives 3.5% (n = 310,000); AID 1490; active = well fitted inhibition curve with a large enough effect; inconclusive = small, poorly fitted or top-dose-only effect, or another doubt; inactive = no such curve, though single readings can be large or run the other way;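 also: the enzyme is Sfp with the accession as filed and its product quenches rhodamine fluorescence; potency is read from the fitted curve at half-maximal effect; 0% = enzyme reaction without inhibitor and -100% = no enzyme wells; top concentration of the series not given in the record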
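After 15 min at room temperature with compound, 15 nM Sfp received 5 uM rhodamine-CoA plus 12.5 uM BHQ-2-ybbR (50 mM Hepes pH 7.6, 10 mM MgCl2). Rate came from the fluorescence difference over 30 min, ex 525/em 598 nm.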
gsp ag = activates gsp, the McCune-Albright syndrome mutation. actives 0.13% (n = 340,000). gsp mutant cells, cAMP HTRF, 30 min; control for the full effect not named in the record. Potency, µM (doses to about 76.9 µM), for inactives: at the top dose activation (cAMP increase), usual class: activators; active = well fitted activation curve with a large enough effect; inconclusive = small, poorly fitted or top-dose-only effect, or another doubt; inactive = no such curve, though single readings can be large or run the other way; cell line not stated here;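 also: phosphodiesterase inhibitor Ro 20-1724 added with compounds to block cAMP breakdown; potency is read from the fitted curve at half-maximal effect; nearly all actives have a fitted effect of over 60% in size; about a fifth of the inactives were tested at one dose only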
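Cells in DMEM/10% FBS with G418 were pretreated with compounds in DMSO plus […] (300 uM stock) for 30 min at 37C. cAMP was measured by HTRF (cAMP-d2 plus anti-cAMP antibody-K) after 30 min at room temperature.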
PINK1 modulator = modulators of PINK1 expression. PINK1 immunofluorescence, high-content cytometry, 24 h. Potency, µM (doses to about 76.6 µM), for inactives: top-dose activation (PINK1 increase), hits mostly activators. actives 0.2% (n = 410,000); active = well fitted activation curve with a large enough effect; inconclusive = small, poorly fitted or top-dose-only effect; inactive = flat fitted curve, though single readings scatter; cell line not stated here;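 also: potency is read from the fitted curve at half-maximal effect; % of control where 0% means no effect; nearly all actives have a fitted effect of over 65% in size; a mitochondrial uncoupler was the plate control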
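Compound titrations (5 concentrations, 24 h) on a stable cell line; DMSO and CCCP controls. Endpoint: fixed-cell PINK1 immunofluorescence with mitochondrial, cell and nuclear markers, scanned by microplate cytometer.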
Menin-MLL FL inh = displaces fluorescein MLL peptide from human menin; Fluorescence polarization, fluorescein-MLL peptide displacement from menin; FP activity change, % at 61.4 µM; 290,000 tested, under 10 active; AID 1766; inconclusive = falling polarisation curve, or a change in total fluorescence; inactive = total fluorescence flat and polarisation flat or rising; no compound was filed as active; the % refers to the polarisation; negative = inhibition;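 also: % of control where 0% means no effect; inhibitors lower the polarisation; unlabelled MLL peptide was the positive control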
ClpP mod = qHTS Assay for Activators of ClpP. ATP-dependent Clp protease proteolytic subunit (Bacillus subtilis (strain 168)), P80244. purified B. subtilis ClpP, FRET peptide cleavage, 20 min. Potency, µM (top dose mostly 57.5 µM), for inactives: top-dose activity change, negative = active. actives 1.9% (n = 340,000). AID 651965, 2013; active = well fitted falling curve with a large enough effect; inconclusive = small, poorly fitted or top-dose-only effect; inactive = no such curve, though single readings can be large or run the other way; also: potency is read from the fitted curve at half-maximal effect; the source files actives as falling curves though it sought activators and does not explain the sign; nearly all actives have a fitted effect of over 65% in size; many hits overshoot -100%
Target sequence (P80244 whole entry, looked up): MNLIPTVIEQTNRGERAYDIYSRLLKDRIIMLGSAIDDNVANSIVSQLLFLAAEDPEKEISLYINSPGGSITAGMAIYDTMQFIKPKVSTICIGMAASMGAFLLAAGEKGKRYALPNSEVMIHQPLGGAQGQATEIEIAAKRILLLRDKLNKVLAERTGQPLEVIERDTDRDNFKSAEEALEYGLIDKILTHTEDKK
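Purified B. subtilis ClpP, 10 microg/mL final in Tris/HCl pH8 with KCl, BSA, glycerol and Tween-20, cleaved an Abz/nitrotyrosine-quenched decapeptide. Fluorescence (ex 320, em 430) was read at 0 and 20 min at room temperature. Delta was normalized to 5.8 microM ADEP and DMSO/no-enzyme controls.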
D2 agonist = human D2 receptor agonism in beta-arrestin assay. P14416. DiscoveRx PathHunter D2 beta-arrestin, luminescence, 90 min; 100% = 57 uM dopamine signal. activation, % (no concentration beside the values). actives 0.084% (n = 360,000). AID 624465; in the data active = activation above about 40%; inconclusive = about 15% to 40%; inactive = below about 15%; also: compound concentration not given in the record; the text of the record calls up to 30% inactive
Target sequence (P14416 whole entry, looked up): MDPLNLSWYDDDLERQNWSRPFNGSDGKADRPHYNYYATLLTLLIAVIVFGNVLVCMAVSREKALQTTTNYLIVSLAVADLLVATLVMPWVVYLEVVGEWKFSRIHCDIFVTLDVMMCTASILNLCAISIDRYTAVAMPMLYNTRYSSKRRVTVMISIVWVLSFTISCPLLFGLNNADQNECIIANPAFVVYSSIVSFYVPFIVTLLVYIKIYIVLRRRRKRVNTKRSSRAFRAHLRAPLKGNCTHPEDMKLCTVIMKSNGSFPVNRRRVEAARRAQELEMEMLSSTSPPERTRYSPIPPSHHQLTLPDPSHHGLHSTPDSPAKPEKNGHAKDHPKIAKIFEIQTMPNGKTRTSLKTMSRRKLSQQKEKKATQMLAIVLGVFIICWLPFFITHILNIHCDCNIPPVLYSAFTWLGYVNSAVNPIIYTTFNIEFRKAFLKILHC
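DiscoveRx PathHunter D2 beta-arrestin cells (2,100/well) attached overnight, then compound-stimulated 90 min at 37 C in HBSS/10 mM HEPES/0.1% Tween-20 buffer; beta-galactosidase complementation read by luminescence after 1 h at ambient temperature. Dopamine 57 uM final (EC100) as control.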
* = called active by the depositor; ? = inconclusive; nt = not tested or not shown; & = joins results of further samples; [ ] = remark or other dose. Compounds were not picked by outcome; any-hit rate near 5.1%.

SMILES	gsp antag	Sfp inh	gsp ag	PINK1 modulator	Menin-MLL FL inh	ClpP mod	D2 agonist
Cc1ccc(NC(=O)N2CCC(c3ccccc3)C2)cc1C (stereo unspecified)	-8%	-7%	3%[15.4 µM]	-0.5%&-0.9%	0.1	-5.3%	-1.4
CC(=O)Nc1ccc(S(=O)(=O)NCc2ccncc2)cc1	8%	-12%	-59%[inhibitor]	-0.2%	7.0	nt	-2.3
CS(=O)(=O)Nc1cccc(-c2cc(Nc3ccccc3)ncn2)c1	nt	3%	nt	0.4%	-1.3	nt	nt
Cn1nnnc1SCc1csc(Nc2ccccc2)n1	1%	50µM*	26%	-0.1%	14	-2.3%	-0.4
COc1cccc(C(=O)Nc2ccc3c(c2)C(=O)N(CCC(=O)O)C3=O)c1	4%	15%	-4%	16%[38.3 µM]	1.1	3.2%	-2.5
O=C(Cn1nnc(-c2ccccc2)n1)Nc1cccc(S(=O)(=O)N2CCOCC2)c1	0%	nt	-17%	1.6%	nt	-1.0%	-1.3
NNC(=O)[C@H](Cc1ccccc1)NC(=O)NCCc1ccccc1	2%	9%	26%	-0.4%	-7.2	0.4%	-12
CCOc1ccc(N(CC(=O)NCC2CCCO2)S(=O)(=O)c2ccc(Cl)cc2)cc1 (stereo unspecified)	-6%	3%	0%	1.2%	3.4	-2.1%	-2.6
CCOC(=O)/C(C#N)=C/Nc1ccccc1NS(=O)(=O)c1ccc2c(c1)OCCO2	-1%	nt	0%	2.2%	nt	-1.7%	-1.9
CCc1nc(SCc2cccnc2)[nH]c(=O)c1C	-5%	14%	5%	2.7%	-0.3	-1.9%	-1.9
CCCC(C(=O)Nc1ccc(S(=O)(=O)Nc2nccs2)cc1)c1ccccc1 (stereo unspecified)	-6%	nt	4%	0.3%	nt	2.1%	-4.6
Cc1cc(S(=O)(=O)N(Cc2ccc(C(C)(C)C)cc2)Cc2cccs2)ccc1-n1cnnn1	-1%	18%	14%	1.6%	6.3	-2.9%	0.2
O=C(/C=C/c1ccc([N+](=O)[O-])cc1)OCC(=O)N1CCOCC1	-14%	nt	-26%	-2.2%	nt	-1.8%	1.3
CCOC(=O)CCCCC(=O)c1[nH]c(=O)[nH]c1CSc1nc2ccccc2[nH]1	-2%	-12%	-9%	nt	0.4	-1.4%	1.4
Cc1oc2nc(SCCCC(=O)NCCO)nc(N)c2c1C	8%	-7%	5%	-2.1%	-1.7	-0.9%	-2.8
Cc1ccc(-n2nc3c(=O)n(CC(=O)NC4CCCCCC4)nc(C)c3c2C)cc1	2%	13%	17%	5.0%	0.4	-5.0%	0.1
O=C(CSc1nnc(Cc2cccs2)n1Cc1ccco1)Nc1cc(Cl)cc(Cl)c1	-9%	-30%	4%	-1.0%	5.2	-0.4%	-2.8
Cn1cnnc1SCCC(=O)Nc1ccccc1	9%	-1%	-8%	-3.4%[38.3 µM]	6.2	-3.4%	0.3
CCc1ccc2nc(N(CCN(C)C)C(=O)c3ccc4ncsc4c3)sc2c1	1%	-25%	14%[15.4 µM]	0.7%	nt	-2.0%	-1.0
CC(=O)Nc1sc(C)c(C)c1C(=O)OCC(=O)NC(C)c1ccccc1 (stereo unspecified)	0%	nt	-5%	10%	nt	14%	-3.6
C#CCNC(=O)C1=C[C@H](c2csc3ccccc23)C[C@H](OCc2ccc(CO)cc2)O1	?	0%	nt	-1.5%	-1.5	-0.1%	3.7
C[C@H](NC(=O)c1ccccc1Cl)C(=O)OCC(=O)N1CC2(C)CC1CC(C)(C)C2 (stereo partly specified)	8%	13%	-8%	2.0%	-3.5	-0.9%	3.2
COc1ccc(Cl)cc1-c1nc(SCC(=O)NC(C)(C)C)n[nH]1	-13%	21%	6%[15.4 µM]	0.7%	-4.9	nt	0.3
O=C(Nc1ccc(Cl)c(NC(=O)c2cccs2)c1)c1ccco1	-23%	12%	-29%	0.9%	-1.8	-3.2%	-3.8
CC(C)NC(=O)CN(c1cccc([N+](=O)[O-])c1)S(=O)(=O)c1ccccc1	2%	-6%	24%	1.1%	3.6	nt	2.1
More compounds:
SMILES	gsp antag	Sfp inh	gsp ag	PINK1 modulator	Menin-MLL FL inh	ClpP mod	D2 agonist
CCc1ccc(OC2(C)CCN(CCOc3ccc(C)cc3)C2)cc1 (stereo unspecified)	nt	nt	nt	?	nt	-0.8%	?
CCCOC(=O)c1c(NC(=O)c2cnn3c2NC(c2ccccc2)CC3C(F)(F)F)sc2c1CCCC2 (stereo unspecified)	-8%	-9%	-36%[inhibitor]	8.6%	2.1	1.9%	1.9
O=C(c1ccccc1)c1ccc(OCC(O)CN2CCN(S(=O)(=O)N3CCCCC3)CC2)cc1 (stereo unspecified)	?	8%	19%	-4.9%[38.3 µM]	-0.1	1.2%	-1.3
CC(=O)NCCc1c(C)n(Cc2ccccc2)c2ccccc12	0%	0%	24%[15.4 µM]	1.5%	-2.5	0.1%	3.7
COc1ccc(NC(=O)CSc2nnc(NC(=O)CN3CCOCC3)s2)cc1	-3%	-4%	0%	-0.8%	-0.7	2.4%	0.8
COc1cc(/C=C2\SC(=S)N(NC(=O)c3ccccc3O)C2=O)ccc1O	?	-19%	4%	1.5%	?	nt	-9.7
Cc1ccc(C)c(NC(=O)CN(C)C(=O)C2COc3ccccc3O2)c1 (stereo unspecified)	2%	nt	-2%	0.1%	nt	0.9%	5.0
CCOC(=O)c1sc2ncn(C(C)C(=O)OC)c(=O)c2c1C (stereo unspecified)	-12%	12%	-9%	1.5%	1.1	-1.8%	-2.7
O=C(Cn1c(=O)oc2cc(S(=O)(=O)NCc3ccccc3)ccc21)N1CCCC1	2%	19%	-4%[15.4 µM]	1.6%	2.3	nt	-1.5
CC1CCCCN1C(=O)CSc1nnc(CSc2ncccn2)n1C (stereo unspecified)	0%	0%	-21%	-1.5%	0.7	1.5%	-0.3
CCCCCn1c(=O)[nH]c2cc(C(=O)NCCCN3CCCCC3C)ccc2c1=O (stereo unspecified)	-12%	14%	24%[15.4 µM]	-0.5%	-0.7	nt	-3.5
CCCCNC(=O)Nc1ccc2c(c1)N(C)C(=O)c1ccccc1S2	-26%	0%	-14%[15.4 µM]	8.5%&0.9%	-9.3	-27%&-1.2%	-1.3
C=C1C2(C(=O)Nc3nccs3)CCC(C2)C1(C)C (stereo unspecified)	4%	0%	-1%	3.0%	7.5	0.4%	3.1
CCSc1nc2sc3c(c2c(=O)n1-c1ccccc1C)CCN(C)C3	-9%	1%	18%[15.4 µM]	2.1%	14	-3.3%	-4.8
O=C(CSc1nc(O)cc(=O)n1-c1ccccc1)Nc1ccc(Br)cn1	1%	10%	?	3.0%	5.5	nt	-5.8
CCC(C)NC(=O)c1ccccc1NC(=O)c1ccc(CSc2ccc(C)cc2)cc1 (stereo unspecified)	-16%	?	11%	?	0.0	?	0.6
C/C(=N/NC(=O)C1CCCCC1)c1ccc([N+](=O)[O-])cc1	11%	7%	0%	7.4%	0.6	4.1%	-2.8
O=C(NCc1ccccc1Cl)C1CCCO1 (stereo unspecified)	13%	14%	-22%	1.0%	0.6	0.3%	1.0
Cc1ccc(C)c(NC(=O)NNC(=O)CCc2ccccc2)c1	-1%	3%	-35%[inhibitor]	-0.4%	4.1	-2.3%	-3.3
CCN(CC)C(=O)Cn1cnc2c1c(=O)n(C)c(=O)n2C	1%	7%	-1%	-1.4%	4.1	-1.7%	-0.9
O=c1ccn(-c2cccc(C(F)(F)F)c2)nc1-c1ccn(-c2ccccc2F)n1	1%	8%	17%	-2.0%	12	-2.8%	-5.7
O=c1[nH]c(SCc2ccccc2Cl)nc2c1CCCC2	-2%	1%	25%	0.6%[38.3 µM]	-3.8	1.0%	?
COc1ccc(C(=O)N/N=C/c2cc3ccccc3[nH]c2=S)cc1	?	-8%	-2%	0.4%	5.7	-0.5%	0.6
Cc1ccc(S(=O)(=O)N2CCOCC2)cc1NC(=O)CNCc1cccnc1	6%	?	?	1.3%	4.7	-0.9%	48*
Cc1cccc(N2CCc3c2nc2ccc(Br)cc2c3N)c1	-29%	13µM*	?	?	1.4	?	1.6
More results follow:
SMILES	gsp antag	Sfp inh	gsp ag	PINK1 modulator	Menin-MLL FL inh	ClpP mod	D2 agonist
O=C(CNC(=O)c1ccc(Br)o1)Nc1ncccc1O	8%	nt	-7%	1.3%	nt	-3.0%	-1.5
Cc1cc(=O)[nH]c(N/N=C/c2cccs2)n1	-20%	-11%	-23%	11%	9.5	-6.2%	-5.8
O=C(Nc1cccc2c1C(=O)NC2=O)c1ccc(S(=O)(=O)N2CCCC2)cc1	3%	-8%	3%	2.1%	-23	-0.9%	-5.6
O=C(NCCC(=O)N(CCc1ccccc1)Cc1ccccc1)c1ccc([N+](=O)[O-])cc1	2%	nt	18%[15.4 µM]	-0.7%	nt	0.2%	-0.3
O=C(CC1C(=O)NCCN1C(=O)Nc1ccccc1)Nc1cc(Cl)ccc1Cl (stereo unspecified)	-6%	13%	10%[15.4 µM]	1.6%	-0.5	nt	-2.6
Cc1cc(Nc2ccc3ccccc3c2)n2ncnc2n1	11%	-11%	11%	-6.4%[38.3 µM]	?	-17%	-0.8
Cc1ccc2oc(=O)n(CCC(=O)Nc3ccc(N4CCOCC4)cc3)c2c1	-5%	2%	8%[15.4 µM]	-0.4%	nt	-2.5%	-0.1
COc1ccc(-c2c(C#N)c(C)nc3c2C(=O)c2ccccc2-3)cc1	-5%	-9%	7%	8.4%	-1.5	-1.2%	-3.8
CC1ON=C(c2ccc(F)cc2)NC1=O (stereo unspecified)	nt	nt	nt	-0.8%	nt	-5.9%	-5.8
CCOC(=O)Cn1c2ccccc2n2nc(CCC(=O)O)c(=O)nc12	11%	12%	1%[15.4 µM]	1.1%	nt	nt	0.0
C=CCn1c(SCC(=O)Nc2sccc2C#N)nc2sc(C)c(C)c2c1=O	23%	-30%	?	0.8%	0.3	-13%	1.2
